Bioassay records deposited in PubChem by National Center for Advancing Translational Sciences (NCATS).
StopGo reporter – FMDV 2A StopGo reporter, luciferase signal; human cells with a luciferase reporter of 2A StopGo recoding; control for the full effect not named in the record; Potency, µM (titrated, usually from 57.9 µM), inactives show at the top dose signal change, negative = less light; hit rate 1.2% among 410,000; active = well fitted falling curve with a large enough effect; inconclusive = small, poorly fitted or top-dose-only effect; inactive = no such curve, though single readings can be large or run the other way; tested in HEK293T cells; note: % is set by controls: 0 for no effect and ±100 for the full control effect; nearly all actives have a fitted effect of over 45% in size; luciferase light after 4 h
Cruzain Triton – cruzain (T. cruzi) inhibition with detergent. Potency, µM, inactives show max response, negative = inhibition, usual class: inhibitors. purified cruzain, Z-FR-AMC fluorescence, 0.01% Triton. P25779. hit rate 0.43% among 200,000; active = well fitted curve in the direction sought with a large enough effect; inconclusive = small, poorly fitted or top-dose-only effect, or another doubt; inactive = no such curve, though single readings can be large; an effect the other way counts as inactive or inconclusive;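 note: plate controls were neutral wells for no effect and buffer without enzyme for full effect; nearly all actives have a fitted effect of over 40% in size; top concentration of the series not given in the record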
Target sequence (P25779 123-467 limits assumed): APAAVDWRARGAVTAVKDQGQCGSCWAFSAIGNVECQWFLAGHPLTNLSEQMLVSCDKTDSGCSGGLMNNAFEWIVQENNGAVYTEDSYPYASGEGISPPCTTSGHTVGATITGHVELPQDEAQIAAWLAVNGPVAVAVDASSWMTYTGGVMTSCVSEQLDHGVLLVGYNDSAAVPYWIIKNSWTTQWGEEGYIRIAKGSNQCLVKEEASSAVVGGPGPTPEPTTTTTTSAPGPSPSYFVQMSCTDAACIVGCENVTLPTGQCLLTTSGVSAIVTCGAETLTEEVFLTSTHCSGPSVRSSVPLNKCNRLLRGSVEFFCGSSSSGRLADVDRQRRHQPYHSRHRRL
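15 min RT preincubation of 1.5 nM cruzain with compound, then 2 uM Z-FR-AMC added; kinetic AMC fluorescence, 60 s delta. Triton X-100 0.01%, pH 5.5.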
NS1 function inh – blocks influenza NS1 protein function; S. cerevisiae slowed by influenza A NS1, growth recovery by OD600; Potency, µM (top dose mostly 46.1 µM), inactives show at the top dose activity, positive = more growth; hit rate 0.4% among 270,000; note: actives are rising curves; nearly all actives have a fitted effect of over 50% in size
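S. cerevisiae expressing influenza A NS1, grown in glucose, washed, then diluted 1:100 into pH 6.0 -URA galactose medium with 23 nl compound. Growth recovery read as OD600; NS1-free strain serves as control.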
MARV entry inh – inhibitors of Marburg virus binding or cell entry; AID 540276; Potency, µM (highest dose often 37.8 µM), inactives show at the top dose activity change, negative = inhibition, hits mostly inhibitors; hit rate 1.8% among 300,000; Marburg virus pseudotyped entry inhibition, cell reporter; control for the full effect not named in the record; about a third of the inactives were read at about 46 µM; active = well fitted inhibition curve with a large enough effect; inconclusive = small, poorly fitted or top-dose-only effect, or effect the other way; inactive = flat fitted curve, though single readings scatter; tested in HEK293 cells; about a fifth of its hits are not listed in these tables; note: % is set by controls: 0 for no effect and ±100 for the full control effect; luciferase read-out
RE007 growth inh – less growth of the S. pombe RE007 Vpr strain | Potency, µM (doses to about 92.2 µM), for the others: at the highest dose activity change, negative = less growth | S. pombe RE007 Vpr strain, BacTiter-Glo ATP luminescence, 24 h; control for the full effect not named in the record | hit rate 0.21% among 360,000; active = well fitted falling curve with a large enough effect; inconclusive = small, poorly fitted or top-dose-only effect; inactive = no such curve, though single readings can be large or run the other way;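 note: % is set by controls: 0 for no effect and ±100 for the full control effect; nearly all actives have a fitted effect of over 50% in size; the assay follows cell death caused by Vpr and the record does not say whether a fall means rescue or toxicity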
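Fission yeast strain RE007, carrying one chromosomally integrated HIV-1 vpr copy, was seeded at OD 0.01 in PMG+AL medium with 23 nL pinned compound. After 24 h at 30 °C and 99% humidity, viability was read by BacTiter-Glo luminescence.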
Cruzain inh noDet – blocks cruzain activity in detergent-free assay; P25779; purified cruzain, Z-FR-AMC fluorescence, no detergent; Potency, µM, inactives show max response, negative = inhibition, most hits filed as inhibitors; hit rate 2.3% among 200,000; AID 1476; active = well fitted curve in the direction sought with a large enough effect; inconclusive = small, poorly fitted or top-dose-only effect, or another doubt; inactive = no such curve, though single readings can be large; an effect the other way counts as inactive or inconclusive;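 note: plate controls were enzyme without inhibitor for no effect and buffer without enzyme for full effect; nearly all actives have a fitted effect of over 40% in size; top concentration of the series not given in the record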
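Detergent-free condition (0.00005% Triton X-100) in acetate buffer pH 5.5 with DTT. 1.5 nM enzyme and compound were pre-mixed 15 min, then 2 uM Z-FR-AMC substrate added; reaction progress from fluorescence change between first and third reads (60 s).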
SARS PLpro yeast – blocks SARS-CoV papain-like protease in a yeast assay; S. cerevisiae expressing SARS-CoV PLpro, growth rescue; control for the full effect not named in the record; Potency, µM (titrated, usually from 32.9 µM), for the others: top-dose activity, positive = growth rescue; hit rate 0.19% among 330,000; AID 485353; note: 0% is about no effect; nearly all actives have a fitted effect of over 55% in size; growth read by luminescence after 48 h
Lassa entry inh – blocks Lassa virus binding to or entry into cells. Lassa virus pseudotype entry inhibition, cell reporter; control for the full effect not named in the record. Potency, µM (doses to about 37.9 µM), without a hit: at the top dose activity change, negative = inhibition, most hits filed as inhibitors. AID 540256. hit rate 1.2% among 300,000; active means well fitted inhibition curve with a large enough effect; inconclusive means small, poorly fitted or top-dose-only effect, or effect the other way; inactive means flat fitted curve, though single readings scatter; tested in HEK293 cells; note: % is set by controls: 0 for no effect and ±100 for the full control effect; nearly all actives have a fitted effect of over 50% in size; luciferase read-out
* marks the source's active call; other numbers are inactive results; u = inconclusive; x = not tested or not shown; & = joins results of further samples; [ ] = another dose, or the depositor's remark. Unless noted, calls come from the whole dose curve; as a rule, active means well fitted rising curve with a large enough effect; inconclusive means small, poorly fitted or top-dose-only effect; inactive means no such curve, though single readings can be large or run the other way. Potency is the fitted concentration of half-maximal effect.

Values in the order: StopGo reporter, Cruzain Triton, NS1 function inh, MARV entry inh, RE007 growth inh, Cruzain inh noDet, SARS PLpro yeast, Lassa entry inh
1	Oc1ccccc1N1CCN(c2ncnc3scc(-c4ccc(F)cc4)c23)CC1
  -9.7%, x, -0.4%, u, -3.3%, x, x, u
2	Cc1cccc(CNC(=O)C2CCC(=O)N(C3CC3)C2)c1 (stereo unspecified)
  33.0%[activator], x, 5.0%, 7.7%[46.1 µM], 7.8%, x, 1.8%, 0.4%[46.1 µM]
3	COc1ccc(S(=O)(=O)NCc2ccccn2)c(C)c1C
  19.3%, x, 4.7%, 0.2%[46.1 µM], -11.3%, x, 0.5%, 1.9%[46.1 µM]
4	O=C(CN1C(=O)CCC1=O)Nc1nc(-c2ccccn2)cs1
  -5.4%, 0.3%, -7.3%, x, 1.9%, 0.6%, 14.2%, x
5	COc1ccc(C)cc1Nc1ncnc2c1c(-c1ccccc1)cn2-c1ccc(C)cc1
  -4.2%, 0.5%, x, x, x, u, x, 10.7%[46.1 µM]
6	COCCNC(=O)CSc1nc2ccc(N3CCOCC3)cc2c(=O)n1Cc1ccc(OC)cc1
  61.3%[activator], -5.9%, 7.7%, 2.8%, 4.2%, u, -4.5%, -25.7%
7	Cc1ccc(S(=O)(=O)NC(=O)Nc2ccc(C)cc2C)cc1
  -15.1%, x, 10.8%, x, -5.2%, x, 2.5%, x
8	Nc1nc(-c2ccccc2)cc(-c2ccccc2)n1
  32.7%[activator], x, -52.3%, x, -13.5%, x, -5.1%, x
9	CC(=O)Nc1ccc(C(=O)CSc2nnc3scc(-c4ccccc4)n23)cc1
  -12.3%, -2.2%, 11.2%, 1.4%, -0.1%, -1.2%, -5.0%, -1.6%
10	CCc1nc2sc3c(N4CCC(C)CC4)ncnc3c2c2c1CCCC2
  -13.7%, 7.6%, x, -6.4%[46.1 µM], x, -4.5%, x, -6.5%[46.1 µM]
11	CCCCCOc1ccc(NC(=O)C2OC3OC(C)(C)OC3C3OC(C)(C)OC23)cc1 (stereo unspecified)
  -6.5%, 1.7%, 2.2%, -4.0%[46.1 µM], 0.5%, -3.9%, -13.3%, 4.7%
12	Cc1ccc2nc(N3CCN(C)CC3)c(C#N)cc2c1
  12.0%, 7.4%, 6.31µM*, u, 5.4%, 3.2%, -3.9%, 16.5%
13	Cc1csc(SCC(=O)Nc2cc(S(=O)(=O)N3CCOCC3)ccc2N2CCOCC2)n1
  -0.2%, x, -31.2%, x, -0.5%, x, 0.2%, x
14	COc1ccccc1N/C=C(\C#N)c1nc2ccccc2[nH]1
  7.4%, x, -0.7%, x, -18.0%, x, -0.9%, x
15	COc1ccccc1C1CCN(c2ccc([N+](=O)[O-])c(OC)c2)CC1
  8.8%, x, 0.7%, 0.0%[14.2 µM], 7.7%, x, -1.0%, -24.3%
16	Cc1ccc(S(=O)(=O)NC(C)(C)CN2CCC(Cc3ccccc3)CC2)cc1
  u, x, -3.2%, x, -18.2%, x, -1.6%, x
17	O=C(N=Nc1c(O)[nH]c(=O)[nH]c1=O)C1COc2ccccc2O1 (stereo unspecified)
  -16.7%, x, x, -2.6%[46.1 µM], 11.3%, x, 1.9%, -7.5%
18	CCn1cc(/C=N/NC(=O)c2cc3c(ccc4ccccc43)o2)c2ccccc21
  -0.4%, -1.5%, 19.2%, -21.9%, 22.3%, 7.94µM*, 2.4%, -26.2%
19	Cc1cccc(Oc2nc3ccccn3c(=O)c2/C=C(\C#N)c2nc3ccccc3s2)c1C
  u, -3.5%, x, 7.3%[46.1 µM], x, 0.9%, x, -5.4%[46.1 µM]
20	CC1CCCN(CCCNC(=O)C2CCN(S(=O)(=O)N3CCC4(CC3)OCCO4)CC2)C1 (stereo unspecified)
  -9.8%, x, -3.4%, x, -2.3%, x, 1.8%, x
21	COc1cc(CC2C(=O)OCC2C(=O)c2ccc3c(c2)OCO3)cc(OC)c1OC (stereo unspecified)
  -14.4%, x, x, 22.7%, -14.8%, x, x, 9.9%[46.1 µM]
22	COc1ccc(-n2c(C)nc3c(cnn3-c3ccccc3)c2=O)cc1
  u, -11.8%, -8.4%, u, -9.2%, 1.0%, -3.1%, u
23	CCc1cc2c(=O)n(N)c(CCC(=O)O)nc2s1
  10.4%, 3.9%, 1.2%, 1.9%, 11.5%, -14.7%, -2.9%, 0.7%
24	CC(C)CC(=O)Nc1ccc(C(=O)OCc2cc(=O)n3nc(C(C)C)sc3n2)cc1
  u, 7.2%, x, x, x, -3.7%, x, 6.6%[46.1 µM]
25	COc1ccc(N(CC(=O)N2CCc3ccccc3C2)S(=O)(=O)c2ccccc2)cc1
  48.9%&25.3%[activator], -4.7%, -10.1%, u, -16.7%, 11.0%, -1.0%, -25.0%
26	Cc1ccc2ncnc(Nc3ccccc3)c2c1
  13.3%, x, x, -4.5%[46.1 µM], 4.5%, x, -9.0%, -0.8%
27	CCC(=O)N1c2ccc(S(=O)(=O)N3CCCCC3)cc2CC1C (stereo unspecified)
  -11.0%, x, -6.4%, x, 0.3%, x, -2.9%, x
28	COc1ccc(N/N=C(/C(N)=O)C2=NC(C)(C)Cc3ccccc32)cc1
  -19.3%, -14.4%, -33.1%, u, -13.6%, 9.5%, -53.1%, u
29	CCN(CC)c1ccc(C(=O)NCc2nc3cccnc3n2Cc2ccc(C)cc2)cc1
  -0.1%, -7.1%, x, x, x, -16.1%, x, -13.4%[46.1 µM]
30	O=C(NCc1cccs1)c1cccc(S(=O)(=O)N2CCCCC2)c1
  0.0%, -1.0%, -9.8%, 4.8%, 7.5%, -7.5%, 3.4%, 0.3%
31	Cc1c(C(=O)NC(C)C2CC3CCC2C3)cccc1[N+](=O)[O-] (stereo unspecified)
  40.8%[activator], x, -12.8%, -26.1%[46.1 µM], 6.5%, x, -0.2%, 1.7%
32	CN(C)C(=O)/C(=C/c1cn(-c2ccccc2)nc1-c1cccc([N+](=O)[O-])c1)NC(=O)c1ccccc1
  0.0%, -11.9%, 12.7%, 0.4%, 8.4%, u, 2.7%, -12.9%
33	CC(=NC1CCN(Cc2ccccc2)CC1)c1c(O)[nH]c(=O)[nH]c1=O
  0.0%, -0.3%, 1.0%, -0.1%, 0.5%, -4.4%, 3.9%, 21.7%
34	COc1ccc(OC)c(C(=O)C(=O)c2cc(OC)ccc2OC)c1
  -27.5%, x, x, u, 1.8%, x, x, -3.7%
35	CCN(CC)C(=O)/C(=C\c1ccc(Br)cc1)NC(=O)c1ccccc1OC
  x, -5.3%, 1.0%, -25.9%, 6.0%, 11.6%, 13.8%, -27.5%
36	COc1ccc(Nc2nc3c(c(=O)n(C)c(=O)n3C)n2CCO)cc1
  10.9%, -6.5%, -14.6%, 1.9%, -17.8%, -6.5%, -0.8%, 17.9%
37	Cc1c(NC(=O)c2cccc(NS(C)(=O)=O)c2)c(=O)n(-c2ccccc2)n1C
  -23.5%, x, 3.4%, x, 2.0%, x, 1.8%, x
38	COc1ccc(OC)c(NC(=O)Nc2nnc(N3CCC(C)CC3)s2)c1
  -20.5%, -7.5%, -19.2%, 29.4%, 19.7%, u, -14.4%, 23.3%
39	NC(=O)c1cc(-c2ccncc2)nc2ccc(Cl)cc12
  -19.7%, x, -4.2%, -7.3%, 10.2%, x, -0.4%, u
40	O=C1OC(c2ccccc2)(c2ccccc2)c2ccccc21
  -0.2%, x, x, u, 21.4%, x, x, u

Pulled one by one from above, 2 records:
Values in the order: StopGo reporter, Cruzain Triton, NS1 function inh, MARV entry inh, RE007 growth inh, Cruzain inh noDet, SARS PLpro yeast, Lassa entry inh
22	COc1ccc(-n2c(C)nc3c(cnn3-c3ccccc3)c2=O)cc1
  u, -11.8%, -8.4%, u, -9.2%, 1.0%, -3.1%, u
32	CN(C)C(=O)/C(=C/c1cn(-c2ccccc2)nc1-c1cccc([N+](=O)[O-])c1)NC(=O)c1ccccc1
  0.0%, -11.9%, 12.7%, 0.4%, 8.4%, u, 2.7%, -12.9%

The list goes on:
Values in the order: StopGo reporter, Cruzain Triton, NS1 function inh, MARV entry inh, RE007 growth inh, Cruzain inh noDet, SARS PLpro yeast, Lassa entry inh
41	CCC1=NC(c2ccc(OC)cc2OC)N(O)C1(C)C (stereo unspecified)
  -8.1%, 2.9%, 0.5%, 16.9%, -3.0%, -2.7%, x, -7.3%
42	COc1cccc(C(=O)Nc2cccc(-c3cn4ccsc4n3)c2)c1OC
  4.9%, -0.2%, x, x, x, 11.7%, x, -14.7%[46.1 µM]
43	COc1cc(CNc2ncnc3c2[nH]c2ccc(C)cc23)cc(OC)c1
  u, x, 1.6%, x, -13.5%, x, 0.0%, x
44	Nn1c(SCC(=O)Nc2ccc3c(c2)OCO3)nnc1C(F)(F)F
  4.0%, x, 7.6%, -15.7%[46.1 µM], 22.4%, x, 0.0%, 0.7%
45	Cn1c(SCC(=O)c2ccccc2F)nnc1C1CC1
  50.7%[activator], -1.2%, 0.1%, 15.4%, -8.9%, -12.4%, -8.0%, 10.8%
46	O=C(CSc1n[nH]c(=O)[nH]c1=O)Nc1c(Cl)cc(Cl)cc1Cl
  -7.9%, x, x, 15.8%, 13.7%, x, -1.2%, -2.7%
47	Cc1ccc(N2CC(NC(=O)c3ccco3)CC2=O)cc1C (stereo unspecified)
  2.8%, -0.1%, x, x, x, -9.3%, x, -17.8%[46.1 µM]
48	CN(C)S(=O)(=O)c1cc(NC(=O)COC(=O)C2CSC3(C)CCC(=O)N23)ccc1Cl (stereo unspecified)
  -22.7%, -0.9%, -14.9%, u, 19.9%, 21.3%, -9.0%, -0.8%
49	Nc1ccc(S(=O)(=O)Nc2ccc(S(N)(=O)=O)cc2)cc1
  x, 1.4%, -0.1%, 14.2%, 4.1%, -3.5%, 0.4%, 0.0%
50	Cc1ccc2nc3ccc(N4CCCCCCC4)nn3c(=O)c2c1
  14.9%, 3.2%, -5.6%, 15.2%, 30.1%, -1.4%, 4.6%, u
